Mtb growth – Mycobacterium tuberculosis H37Rv growth inhibition, cell based, confirmatory dose response (AID 1949) | most inactive calls were filed without a number and no value below 0 was filed | inhibition, % at 10 µg/mL; hits with a dose series show IC50 in µg/mL | hit rate 1.6% among 100,000;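 active = confirmed in a dose series; inconclusive = about 50% or more but not retested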;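 note: bacteria grown 7 days with compound before Alamar blue readout; 0% = untreated bacteria and 100% = reference antibiotic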
The depositor's hits bear a star; i = inactive; ? = inconclusive.

SMILES | Mtb growth
CCCOc1ccccc1NC(=O)c1c(-c2ccccc2)noc1C | i
COc1ccc(C(C)C)cc1S(=O)(=O)Nc1cccc(O)c1 | i
CC(C)c1ccc(C(=O)Nc2ccc(I)cc2Cl)cc1 | i
COC(=O)c1ccc(OC(=O)COc2ccc(Br)cc2C(C)(C)C)cc1 | i
Cc1c(-c2ccccc2)nc2ccccc2c1C(=O)Nc1ccc(F)cc1 | i
CCOC(=O)C(=O)C(C#N)c1ccc(OC(C)C)cc1 (centres undefined) | i
c1ccc(CSC2=NCCCN2)cc1 | i
Cc1ccc2nc(-c3cccnc3)cc(C(=O)N3CCOCC3)c2c1 | i
Cc1cccn2cc(-c3cccc(NC(=O)c4cccc(Cl)c4)c3)nc12 | 2%
O=C(COc1cc(Cl)c(Cl)cc1Cl)Nc1ncn[nH]1 | 3%
Cn1c(=O)n(C)c2cc(N)ccc21 | i
Cc1cc(Cl)ccc1OCCCC(=O)NNC(=S)NCc1ccccc1 | 2%
O=C(CSc1nnc(NC(=O)c2ccc(Cl)cc2)s1)c1ccc(Br)cc1 | i
CSc1cccc(NS(=O)(=O)c2ccccc2[N+](=O)[O-])c1 | i
CCCCNC(=O)c1ccccc1NC(=O)CN(c1ccc(C(C)C)cc1)S(C)(=O)=O | i
CC(C)C(=O)Nc1cccc(NC(=O)c2ccc(C(C)(C)C)cc2)c1 | i
COc1ccc(Cl)cc1NC(=O)Nc1ccc(Br)cn1 | i
COc1ccc(-c2cc(C(F)F)n3ncc(C(=O)N4CCN(C(=O)c5ccco5)CC4)c3n2)cc1 | i
COc1ccc(OC)c(NC(=S)NCCSc2ccc(C)cc2)c1 | 7%
CC(=O)c1cccc(N(CC(=O)NCCSCc2cccc(Cl)c2)S(C)(=O)=O)c1 | i
O=C(CSc1nc2ccc([N+](=O)[O-])cc2s1)Nc1ccc(N2CCOCC2)c(Cl)c1 | ?
Cc1ccc(C(O)C(C)(C)C(=O)O)cc1 (centres undefined) | 5%
Cc1ccccc1NC(=O)Cn1c(=O)oc2ccccc21 | i
CCSc1nc(-c2cccs2)cc(-c2cccs2)c1C#N | 5%
O=C(NCc1ccc(F)cc1)c1cccc(C(=O)NCc2ccc(F)cc2)n1 | i
COc1cc(OC)c(C=O)c(OC(=O)N(C)C)c1 | i
COc1cc(Cl)c(S(=O)(=O)NCc2ccc3c(c2)OCO3)cc1Cl | i
COc1ccc(N(C(C)C(=O)Nc2ccc3c(c2)OCCO3)S(C)(=O)=O)cc1 (centres undefined) | i
COCCCN1C(=O)N(c2ccc(F)cc2)C(=O)C1CC(=O)Nc1ccccc1 (centres undefined) | i
Cc1c(C=O)c2ccccc2n1CC(=O)Nc1ccc2c(c1)OCO2 | 3%

Quoted at random: six compounds from above
SMILES | Mtb growth
CCSc1nc(-c2cccs2)cc(-c2cccs2)c1C#N | 5%
Cc1ccc(C(O)C(C)(C)C(=O)O)cc1 (centres undefined) | 5%
COc1ccc(N(C(C)C(=O)Nc2ccc3c(c2)OCCO3)S(C)(=O)=O)cc1 (centres undefined) | i
O=C(CSc1nc2ccc([N+](=O)[O-])cc2s1)Nc1ccc(N2CCOCC2)c(Cl)c1 | ?
Cc1c(C=O)c2ccccc2n1CC(=O)Nc1ccc2c(c1)OCO2 | 3%
COc1cc(Cl)c(S(=O)(=O)NCc2ccc3c(c2)OCO3)cc1Cl | i

More structures follow.
SMILES | Mtb growth
CC(CNC(=O)C(C)Oc1ccccc1)CN(C)C (centres undefined) | i
O=C(COc1ccccc1)Nc1cccc(-c2nc3cc4ccccc4cc3[nH]2)c1 | ?
CCOC(=O)N1CCN(C(=S)NC(=O)c2c(-c3c(Cl)cccc3Cl)noc2C)CC1 | i
O=C(CCC1CCCC1)Nc1ncn[nH]1 | i
COc1ccc(N2C(=O)CC(N3CCN(C)CC3)C2=O)c(C)c1 (centres undefined) | i
Cc1ccc(OCC(=O)N(c2ccccn2)C2CCCCC2)c(C)c1 | 3%
C=CCc1c(C)nc(SC(C)C)[nH]c1=O | i
COc1ccccc1C(=O)Nc1ccccc1N1CCN(C)CC1 | i
CCc1cccc(CC)c1NC(=O)c1ccc([N+](=O)[O-])cc1Cl | 9%
COc1cccc(N(CC(=O)Nc2ccccc2OC)S(=O)(=O)c2ccc(C)cc2)c1 | i

A different layout for part of the listing above:
smiles: O=C(CCC1CCCC1)Nc1ncn[nH]1
- Mtb growth: i

smiles: COc1ccc(N2C(=O)CC(N3CCN(C)CC3)C2=O)c(C)c1 (centres undefined)
- Mtb growth: i

smiles: Cc1ccc(OCC(=O)N(c2ccccn2)C2CCCCC2)c(C)c1
- Mtb growth: 3%

New compounds follow:
SMILES | Mtb growth
CC(=O)Nc1cccc(NC(=S)Nc2ccc3c(c2)OCO3)c1 | i
S=C(NCC1CCCO1)N1CCN(C/C=C/c2ccccc2)CC1 (centres undefined) | i
COc1ccc(S(=O)(=O)N(CC(=O)Nc2ccc3c(c2)OCCO3)c2ccc(Cl)cc2)cc1 | i
Cc1ccc(OCCCOc2ncnc3ccccc23)cc1C | 1%
COC(=O)c1cc(NS(=O)(=O)c2ccc(OC)c(Br)c2)ccc1Cl | i
COCCSc1nnc(NC(=O)CCS(=O)(=O)Cc2ccccc2)s1 | i
CCCNC(=O)c1ccccc1NC(=O)CN(c1cc(OC)ccc1OC)S(=O)(=O)c1ccccc1 | i
Cc1ccc(NC(=O)CN2CCN(C)CC2)c(Br)c1 | i
CCc1ccc(NC(=O)CSc2nnc(CCc3ccccc3)n2CC)cc1 | i
COc1cc(C2Nc3ccc(C(=O)c4ccccc4)cc3NC3=C2C(=O)CC(C)(C)C3)cc(I)c1O (centres undefined) | ?
CCCCN(CCCC)C(=S)NC(=O)C(C)(C)C | 38%
CC(C)C(=O)Nc1ccc(Cc2ccc(NC(=O)C(C)C)c(O)c2)cc1O | i
CCN1CCN(c2nc(-c3ccc(OC)cc3)nc3ccccc23)CC1 | 7%
O=C(O)CC(c1ccc(F)cc1)c1ccco1 (centres undefined) | 3%
Cc1ccc(C)n1-c1ccccc1-c1ccccc1N | 19%
O=C(c1ccc(N2CCCCC2)c([N+](=O)[O-])c1)N(Cc1ccccc1)c1ccccn1 | 2%
O=S1(=O)C=CC2ON=C(c3c(Cl)cccc3Cl)C21 (centres undefined) | 11µg/mL*
Cc1cccc(OCC(=O)Nc2ccc(N3CCCCC3)cc2)c1C | i
COC(=O)c1ccc(NC(=O)C2CCN(S(=O)(=O)c3cc(Cl)ccc3Cl)CC2)cc1 | 6%
CCOc1cc(CN2CCN(c3ccccn3)CC2)ccc1O | i
O=C(NCC1CCCO1)C(Cc1ccccc1)N1C(=O)C2C3C=CC(C4CC34)C2C1=O (centres undefined) | i
O=C(CN(Cc1ccccc1)S(=O)(=O)c1ccc(F)cc1)Nc1ccccc1C(F)(F)F | i
CSc1cccc(NC(=O)CSc2nnc(-c3ccc(Br)cc3)o2)c1 | ?
Clc1cccc(-c2nn3c(Cc4ccccc4)nnc3s2)c1 | i
CC1CCN(CC(=O)Nc2ccccc2[N+](=O)[O-])CC1 | i
CCOC(=O)c1ccc(NC(=O)c2nn(CC)cc2Br)cc1 | 1%
COc1ccc(CCN/C(C)=C/c2oc3ccc(O)cc3c2[N+](=O)[O-])cc1OC | i
O=S(=O)(NCc1ccccc1)c1cccs1 | 6%
COc1ccc(NS(=O)(=O)c2ccc(NC(=O)c3ccc(-c4ccccc4)cc3)cc2)c(OC)c1 | 2%
COc1ccc(OC(C)C(=O)Nc2ccccc2C(F)(F)F)cc1 (centres undefined) | i
CC(=O)Nc1ccc(S(=O)(=O)N2CCN(CC(O)COc3ccc4cc(Br)ccc4c3)CC2)cc1 (centres undefined) | 24%
CC1CN(CCOc2ccc(Cl)c(Cl)c2)CC(C)O1 (centres undefined) | i
CCn1c(SCC(=O)N2c3ccccc3Sc3ccccc32)nnc1-c1ccc(C)cc1 | 15%
NC(=O)c1ccsc1NC(=O)c1cc(Br)ccc1Cl | i
Cc1ccccc1N(CC(=O)NCCSCc1ccco1)S(C)(=O)=O | i
Cc1cccc(OCc2nnc(SCC(=O)Nc3nc(-c4ccccc4)cs3)o2)c1 | i
OCc1cc(Cl)ccc1OCc1ccc(Cl)cc1Cl | 14%
CCCn1nnc(NC(=O)c2cc(Cl)ccc2OC)n1 | i
COc1cc(N2CCCC2)c(OC)cc1/C=C(/C#N)c1cccc(F)c1 | i
O=C(COc1ccc(Cl)cc1)NC1=NCCS1 | i
CN(C)c1ccc(NC(=O)CC2CCCCC2)cc1 | i
COc1ccc(CCNC(=S)Nc2ccc(Cl)cc2)cc1OC | 0%
COc1ccc(S(=O)(=O)N2CCC(C)CC2)cc1N(C)S(=O)(=O)c1ccccc1 | 1%
Cc1cc(C(=O)Nn2cnnc2)cs1 | 0%
CC(=O)c1cc(F)c(N2CCN(C(=O)c3ccc(Cl)cc3Cl)CC2)cc1C | 0%
CCC(=O)Nc1ccc(S(=O)(=O)N2CCc3ccccc32)cc1 | i
CCOC(=O)C1CCN(S(=O)(=O)c2ccc(Br)s2)CC1 | i
Cc1cc(C)nc(NC(=O)Cc2ccc(Cl)cc2)n1 | i
CC(=O)Nc1ccc(S(=O)(=O)Nc2nc3ccccc3nc2Nc2cccc(F)c2)cc1 | i
Cc1cccc(C)c1OC(=O)COc1ccccc1 | 30%

(further entries)
SMILES | Mtb growth
CC(C)Oc1ccc(C(=O)NC(=S)Nc2cccc(C(=O)O)c2)cc1 | i
CCCc1cc(=O)oc2cc(OCc3cc(OC)c(OC)c(OC)c3)c(Cl)cc12 | 2%
CCCOc1ccc([N+](=O)[O-])cc1C#N | i
Cc1cc(I)ccc1NC(=O)Cc1cccc2ccccc12 | i
COc1ccc(/C(N)=N/OC(=O)C(C)Oc2cccc(Cl)c2)cc1OC (centres undefined) | i
O=C1C2CCCCC2C(=O)N1c1n[nH]c(Cc2ccccc2)n1 (centres undefined) | i
O=C(CCCN1C(=O)c2ccccc2C1=O)NCc1ccccn1 | i
Fc1cccc(NC(=S)Nc2ccccc2C(F)(F)F)c1 | i
CC(=O)c1ccc(N2CCN(C(=S)Nc3ccccc3C(F)(F)F)CC2)cc1 | i
O=C(CCC1CCCC1)Nc1ccc2ccccc2c1 | 46%
O=C(CSc1nnc(-c2cccnc2)o1)c1ccc(Br)cc1 | i
O=C1C=CC(=O)C2=C1C1c3ccccc3C2c2ccccc21 | i
CCCCc1nnc(SCC(=O)Nc2ccccc2)n1CC | i
CCC(Oc1ccc2c(=O)c(-c3ccc(Cl)cc3)coc2c1)C(=O)OCc1ccccc1 (centres undefined) | 1%
O=C(Nc1nn[nH]n1)C1(c2ccccc2)CCCC1 | i
Cc1c(NC(=O)/C(=C\c2ccccc2)NC(=O)c2ccccc2)c(=O)n(-c2ccccc2)n1C | i
COC(=O)C1=C(C)N(C)C(C)=C(C(=O)OC)C1c1ccc(Cl)cc1 | i
Cc1cc(-c2ccc(NC(=O)c3ccoc3C)c(C)c2)ccc1NC(=O)c1ccoc1C | i
COc1cccc(-n2c(C34CC5CC(CC(C5)C3)C4)n[nH]c2=S)c1 | 46%
O=C1CC(N2CCN(c3ccc(C(=O)c4ccc(F)cc4)cc3)CC2)C(=O)N1 (centres undefined) | i
CCc1c(C)sc(NC(=O)C2C3C=CC(C3)C2C(=O)O)c1C(N)=O (centres undefined) | 0%
O=C(c1ccc2c(c1)OCCO2)c1ccccc1I | i
Cc1cc(N2C(=O)C3CCCCC3C2=O)no1 (centres undefined) | i
CC(=O)N1CCN(Cc2ccc(Br)s2)CC1 | i
CCOC(=O)N1CCN(C(=S)NC)CC1 | i
CCOC(=O)c1c(-c2ccc(OCC)cc2)csc1NC=O | 21%
O=S1(=O)NC(=NCCCN2CCOCC2)c2ccccc21 | i
CC(=O)Nc1ccc(NC(=O)CSc2nccc(=O)[nH]2)cc1 | i
COc1ccc(OCC(=O)N=Nc2c(O)n(C)c3c(C)cccc23)c(Br)c1 | i
CCOc1ccc(N2C(=O)CC(SCC(=O)Nc3c(C)cccc3CC)C2=O)cc1 (centres undefined) | i
COc1ccc(C(=O)O)cc1NC(=S)NC(=O)c1ccc2ccccc2c1 | 1%
CCCCCC(=O)N1c2ccccc2NC2=C(C(=O)CC(c3ccc(OC)cc3)C2)C1c1ccco1 (centres undefined) | 6%
COc1ccccc1NC(=O)C1=C(C)NC(=S)NC1c1ccccc1C (centres undefined) | i
CCc1[nH]nc2c1C(Cc1ccccc1)C(C#N)=C(N)O2 (centres undefined) | 3%
CC(=O)Oc1ccc(C(=O)NCc2nc(-c3ccccc3)no2)cc1 | i
CC(=O)c1ccc(Sc2ccc(C(C)=O)cc2)cc1 | i
O=C(Nc1cccc(F)c1)c1cc(I)ccc1Cl | 10%
CC(=O)NC(C)C12CC3CC(CC(C(=O)O)(C3)C1)C2 (centres undefined) | i
Cc1c(NC(=O)CSc2nnc(-c3ccco3)n2-c2ccccc2)c(=O)n(-c2ccccc2)n1C | i
COc1ccc(NC(=O)c2c(NCc3cccc(OC)c3OC)sc3c2CCC3)c(OC)c1 | i
COc1ccccc1C(CC#N)c1ccc(OC(C)C)cc1 (centres undefined) | i
CCc1ccc(-n2c(SCC(=O)c3ccc(Cl)cc3)nnc2-c2ccncc2)cc1 | 1%
CCOC(=O)C1=C(C)NC(=S)NC1c1ccc(C)s1 (centres undefined) | 49%
COC(=O)c1cc(OC)c(OC)cc1NC(=O)c1ccccc1Br | 5%
CCOC(=O)C1=C(C)N(CCOC)C(=O)C1 | i
O=C(CSCc1ccccc1)N1CCN(c2ccccc2)CC1 | 1%
Cc1nnc(SCC2=NN(c3nc4ccccc4s3)C(=O)C2)s1 | i
COc1ccc2oc(=O)c(C(=O)NCc3ccco3)cc2c1 | i

Screens from PubChem BioAssay.

This is a subset; the hit share may differ from the screen's.
